# Compound activity from PubChem BioAssay.
# Mtb growth – Mycobacterium tuberculosis H37Rv growth inhibition, putative kinase inhibitor library, confirmatory dose response (AID 2842); M. tuberculosis H37Rv growth inhibition; higher % means a stronger effect; some inactives read as strong as hits; inhibition, % at 10 µg/mL; hits with a dose series show IC90 in µg/mL; hit rate 5.2% among 24,000;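 active = confirmed in a dose series; about a fifth of its hits are not listed in these tables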;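 also: bacteria incubated one week before Alamar blue readout; 0% = bacteria only wells and 100% = bacteria with high antibiotic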
# * = called active by the depositor.
compound	Mtb growth
CCc1ccc(C(=O)c2cn(Cc3ccccc3OC)c3cc4c(cc3c2=O)OCCO4)cc1	1%
O=C(Nc1ccc(F)c(Cl)c1)c1cnc2n(c1=O)CCS2	0%
COc1ccccc1-c1nnc(Nc2nc3c(F)cccc3s2)o1	3.2µg/mL*
Cn1c(=O)c2c(SCC(=O)Nc3nc4ccccc4s3)ccnc2n(C)c1=O	-2%
O=C(NCCc1ccccc1)c1cnc2n(c1=O)CCS2	3%
CCS(=O)(=O)c1ccc(C(=O)Nc2nc3c(C)cccc3s2)cc1	3%
COCCN(C(=O)Nc1ccc(Cl)cc1)C1CCS(=O)(=O)C1 (stereo not drawn)	-4%
O=c1oc2ccccc2cc1-c1csc(Nc2cccc(O)c2)n1	72%
O=C(Nc1ccc(S(=O)(=O)N2CCCCC2)cc1)c1cc(-c2ccncc2)nc2ccccc12	-8%
O=C(COc1ccccc1F)Nc1c(C(=O)Nc2ccccc2)oc2ccccc12	2%
O=C(CNCc1ccccc1)Nc1ncc(Cc2cccc(C(F)(F)F)c2)s1	3%
CCOC(=O)c1oc2ccccc2c1NC(=O)C12CC3CC(CC(C3)C1)C2	7%
COc1ccc(Cl)cc1N1CC(c2nc3ccccc3[nH]2)CC1=O (stereo not drawn)	-7%
CCOC(=O)COc1cccc(/C=C2\Oc3cc(OC)ccc3C2=O)c1	3.5µg/mL*
CCOC(=O)C1CCN(C(c2ccc(Cl)cc2)c2sc3nc(C)nn3c2O)CC1 (stereo not drawn)	-2%
Cc1ccc(Cn2c(Sc3nc4ccccc4s3)nc3c2c(=O)[nH]c(=O)n3C)cc1	-10%
Cc1c(Cl)ccc2sc(N(CCCn3ccnc3)C(=O)c3ccco3)nc12	0.23µg/mL*
Cc1cccc(N2CCN(C(=O)CCCCCn3c(=O)[nH]c4ccsc4c3=O)CC2C)c1 (stereo not drawn)	19µg/mL*
Nc1nc(SCC(=O)Nc2cccc3ccccc23)[nH]c(=O)c1NC(=O)c1ccccc1F	0%
Cc1ccc(C(=O)Nc2c(N)nc(SCC(=O)Nc3ccc(Cl)c(Cl)c3)[nH]c2=O)cc1	1%
Cc1cc(NC(=O)CSc2nc3c(c(=O)n2Cc2ccccc2)SC(C)C3)no1 (stereo not drawn)	7%
O=C(CSc1ccc2nnc(-c3cccc(F)c3)n2n1)NC1CCCCC1	-1%
COc1ccccc1NC1=C(Cl)C(=O)N(c2ccc(Cl)cc2)C1=O	-12%
CN(c1ccccc1)S(=O)(=O)c1ccc(C(=O)Nc2nc3c(s2)COc2ccccc2-3)cc1	2%
CCCCC(=O)Nc1nnc(-c2ccc(Cl)cc2Cl)s1	-1%

# 16 compounds already listed, ordered by molar mass, low to high.
compound	Mtb growth
O=C(NCCc1ccccc1)c1cnc2n(c1=O)CCS2	3%
O=C(Nc1ccc(F)c(Cl)c1)c1cnc2n(c1=O)CCS2	0%
CCCCC(=O)Nc1nnc(-c2ccc(Cl)cc2Cl)s1	-1%
O=c1oc2ccccc2cc1-c1csc(Nc2cccc(O)c2)n1	72%
COc1ccccc1-c1nnc(Nc2nc3c(F)cccc3s2)o1	3.2µg/mL*
COCCN(C(=O)Nc1ccc(Cl)cc1)C1CCS(=O)(=O)C1 (stereo not drawn)	-4%
O=C(CSc1ccc2nnc(-c3cccc(F)c3)n2n1)NC1CCCCC1	-1%
Cc1c(Cl)ccc2sc(N(CCCn3ccnc3)C(=O)c3ccco3)nc12	0.23µg/mL*
O=C(COc1ccccc1F)Nc1c(C(=O)Nc2ccccc2)oc2ccccc12	2%
O=C(CNCc1ccccc1)Nc1ncc(Cc2cccc(C(F)(F)F)c2)s1	3%
Cn1c(=O)c2c(SCC(=O)Nc3nc4ccccc4s3)ccnc2n(C)c1=O	-2%
Cc1cc(NC(=O)CSc2nc3c(c(=O)n2Cc2ccccc2)SC(C)C3)no1 (stereo not drawn)	7%
Cc1cccc(N2CCN(C(=O)CCCCCn3c(=O)[nH]c4ccsc4c3=O)CC2C)c1 (stereo not drawn)	19µg/mL*
CCc1ccc(C(=O)c2cn(Cc3ccccc3OC)c3cc4c(cc3c2=O)OCCO4)cc1	1%
O=C(Nc1ccc(S(=O)(=O)N2CCCCC2)cc1)c1cc(-c2ccncc2)nc2ccccc12	-8%
CN(c1ccccc1)S(=O)(=O)c1ccc(C(=O)Nc2nc3c(s2)COc2ccccc2-3)cc1	2%

# The listing picks up, starting two compounds before the break.
compound	Mtb growth
CN(c1ccccc1)S(=O)(=O)c1ccc(C(=O)Nc2nc3c(s2)COc2ccccc2-3)cc1	2%
CCCCC(=O)Nc1nnc(-c2ccc(Cl)cc2Cl)s1	-1%
COc1ccc(-c2nnc3ccc(SCC(=O)Nc4cc(Cl)ccc4OC)nn23)cc1	-2%
COc1ccc(C(=O)Nc2nnc(-c3cc(C)ccc3C)o2)cc1	83%
CC(C)c1nc(C(N)=O)c2[nH]c(=O)n(-c3ccc(F)cc3)c2n1	5%
Cc1ccc(C2C(C(=O)c3ccco3)=C(O)C(=O)N2CCCN(C)C)cc1 (stereo not drawn)	9%
COc1ccc(/C(O)=C2/C(=O)C(=O)N(Cc3cccnc3)C2c2ccccn2)cc1 (stereo not drawn)	-28%
O=C(Nc1ccc(Cl)cc1C(=O)c1ccccc1Cl)c1cc(=O)c2ccccc2o1	5%
O=C1CN(C(=O)c2cc3ccccc3oc2=O)C(c2ccccc2)c2cc(F)ccc2N1 (stereo not drawn)	2%
CCC(=O)Nc1nnc(-c2ccc(C)cc2C)o1	<0.2µg/mL*
O=C(NCCCN1CCOCC1)NC(=O)c1ccc(F)cc1	-15%
O=C(Cn1c2ccccc2c(=O)c2ccccc21)Nc1ccccc1F	-15%
COc1ccc(OC)c(-n2c(=S)[nH]c3cc(C(=O)NCc4ccco4)ccc3c2=O)c1	-4%
O=C(O)c1cccc(N2C(=O)CC(Sc3ccccc3C(=O)O)C2=O)c1 (stereo not drawn)	-14%
O=C(Nc1c(C(=O)Nc2ccccc2F)oc2ccccc12)c1cc(Cl)ccc1Cl	-7%
C=CCn1c(N(C)C)nc2c1c(=O)[nH]c(=O)n2C	-3%
COc1ccc(C(=O)Nc2c(N)nc(SCC(=O)Nc3ccc4c(c3)OCCO4)[nH]c2=O)cc1OC	-6%
CSc1ccc2nc(Nc3nnc(-c4cccs4)o3)sc2c1	61%
COc1ccc(CC(=O)Nc2nnc(-c3ccccc3OC)s2)cc1OC	-1%
CCN(CC)S(=O)(=O)c1ccc(C(=O)Nc2nc3c(s2)CC(C)CC3)cc1 (stereo not drawn)	-2%
CCn1c(SCC(=O)Nc2nccs2)nc2c(c1=O)SC(C)C2 (stereo not drawn)	-6%
O=C(Cn1cnc2c(cnn2-c2ccccc2)c1=O)Nc1ccc(F)cc1	3%
CCN1CCc2c(sc(NC(=O)c3ccc(F)cc3)c2C(N)=O)C1	1%
COc1cc(/C=N/Nc2nnc(C)c(=O)[nH]2)ccc1OCc1ccc(Cl)cc1	80%
COc1ccc(NC(=O)c2cnc3scc(C)n3c2=O)cc1	-4%
CSc1nc2ccc3nc(NC(=O)CCSc4ccccc4)sc3c2s1	-5%
O=C(O)c1ccc(Cn2nnc3sc4c(c3c2=O)CCCC4)cc1	-27%
COc1ccc(-n2c(=O)[nH]c3c(C(N)=O)nc(-c4ccc([N+](=O)[O-])cc4)nc32)cc1	7%
O=C(CSc1nnc(CNC(=O)c2ccccc2)o1)Nc1nccs1	-8%
Cc1ccc(-n2c(=O)[nH]c3c(C(N)=O)nc(-c4cccc(Cl)c4)nc32)cc1C	-11%
COc1ccc(N2CC(NC(=O)Nc3cccc(Br)c3)CC2=O)cc1 (stereo not drawn)	8%
CCOC(=O)c1ccc(N=c2oc3ccc(Cl)cc3cc2C(N)=O)cc1	40%
CC1CCN(c2nc3c(c(=O)n(C)c(=O)n3C)n2CCSc2nc3ccccc3o2)CC1	0%
CCc1cccc2sc(NC(=O)c3ccc(S(=O)(=O)CC)cc3)nc12	30%
COc1cc(/C=N/Nc2ncnc3nc[nH]c23)cc(OC)c1OC	4%
Cn1c(=O)c2c(SCC(=O)Nc3ccc([N+](=O)[O-])cc3)ccnc2n(C)c1=O	-1%
CCOc1ccc(-c2cc(C(=O)N/N=C/c3ccc(O)c(OC)c3)[nH]n2)cc1	-7%
Cc1c(N2C(=O)/C(=C\c3ccc(Cl)cc3)SC2=S)c(=O)n(-c2ccccc2)n1C	-8%
CC(C)c1nnc(NC(=O)COc2ccccc2)s1	-4%
C=CCOc1ccc(/C(O)=C2\C(=O)C(=O)N(Cc3cccnc3)C2c2ccc(C)o2)cc1 (stereo not drawn)	-34%
CCN(CC)S(=O)(=O)c1ccc(C(=O)Nc2nc(-c3ccc(Br)cc3)cs2)cc1	-1%
C#CCn1c(=NC(=O)c2ccc(Cl)cc2)sc2cc(NC(C)=O)ccc21	8%
Cc1ccc(-c2nnc(NC(=O)C3CC3)s2)cc1	9%
CCNc1nc(NCC)n2c(SCC(=O)c3ccc(Br)cc3)nnc2n1	-2%
COc1ccccc1Nc1ncnc2c1cnn2C	-1%
Nc1nc(SCC(=O)Nc2cccc3ccccc23)[nH]c(=O)c1NC(=O)c1ccc(F)cc1	1%
COc1ccc(N2CCN(c3ncnc4nc[nH]c34)CC2)cc1	11%
Cc1c(C)n2c(SCC(=O)N3CCc4ccccc43)nnc2[nH]c1=O	-2%
CC1CCc2c(sc3nc(SCC(=O)Nc4ccc(F)cc4)n(-c4ccccc4)c(=O)c23)C1 (stereo not drawn)	-3%
O=C(CCCl)Nc1c(C(=O)Nc2ccc(F)cc2)oc2ccccc12	-2%
CC1=C(C(=O)Nc2ccc(Cl)cc2)C(c2ccc(O)cc2)n2nc(CCCO)nc2N1 (stereo not drawn)	53%
O=c1[nH]c(SCc2ccccc2)nc2c1cnn2-c1ccc(F)cc1	-8%

COCCOC(=O)c1c(C)oc2ccc(OCC(=O)OC(C)(C)C)cc12
  Mtb growth: 6%
N#C/C(=C\Nc1cc([N+](=O)[O-])ccc1F)c1nc(-c2ccc3c(c2)OCO3)cs1
  Mtb growth: 4%
NC(=O)c1cc2ccccc2oc1=Nc1ccc(O)cc1
  Mtb growth: -7%
CCOC(=O)C1CCN(c2cc(=O)n(-c3ccc(OC)cc3)c(=O)[nH]2)CC1
  Mtb growth: -7%
COc1ccc(-c2nc(SCC(=O)Nc3cccc(C(F)(F)F)c3)c3c(=O)n(C)c(=O)n(C)c3n2)cc1
  Mtb growth: 6%
Nc1ncnc2c1c1nc3ccccc3nc1n2CCc1ccccc1
  Mtb growth: -4%
CCn1c(CNC(=O)c2ccc(OC)cc2)nnc1SC
  Mtb growth: -3%
O=C(CSc1ncnc2c1nnn2-c1ccc(F)cc1)NCc1ccc2c(c1)OCO2
  Mtb growth: 7%
Cc1onc(-c2ccccc2Cl)c1C(=O)N1CCN(c2ccc(N3CCCCC3)nn2)CC1
  Mtb growth: 1%
Cc1nc2ccccc2c(=O)[nH]1
  Mtb growth: 0%
CCOc1ccc(C(=O)c2cn(Cc3cccc(OC)c3)c3cc4c(cc3c2=O)OCCO4)cc1
  Mtb growth: 79%
Cc1cc(OC(=O)c2cccc([N+](=O)[O-])c2C)c([N+](=O)[O-])c(=O)[nH]1
  Mtb growth: 3%
COc1ccc(N2CC(NC(=O)NCc3ccccc3Cl)CC2=O)cc1 (stereo not drawn)
  Mtb growth: 11%
CN1CCN(c2cc(=O)n(-c3ccc(Cl)cc3)c(=O)[nH]2)CC1
  Mtb growth: 2%
N#Cc1ccc(Cn2c(=O)n(CCC(=O)NCCc3ccc(Cl)cc3)c(=O)c3sccc32)cc1
  Mtb growth: 1%
O=C(CN1N=NC2C(=O)N(c3ccc(Br)cc3)C(=O)C21)Nc1ccccc1[N+](=O)[O-] (stereo not drawn)
  Mtb growth: -18%
COc1ccc(C(=O)NC2CC(=O)N(c3ccc4c(c3)OCCO4)C2)cc1 (stereo not drawn)
  Mtb growth: 5%
O=C(Nc1nc(-c2ccc(Cl)c(Cl)c2)cs1)c1ccc(S(=O)(=O)N2CCc3ccccc3C2)cc1
  Mtb growth: 2%
Cc1csc2ncc(C(=O)Nc3cc(C(F)(F)F)cc(C(F)(F)F)c3)c(=O)n12
  Mtb growth: 2%
Cc1ccc(N2C(=O)c3ccc(C(=O)OCC(=O)Nc4cccc(C(F)(F)F)c4)cc3C2=O)c(C)c1
  Mtb growth: 6%
CCCc1cc(=O)[nH]c2nnc(SCc3cc(C)ccc3C)n12
  Mtb growth: -22%
O=C(Cc1ccccc1)Nc1nnc(-c2ccc(Br)cc2)o1
  Mtb growth: 56%
O=C(CC1(O)C(=O)Nc2ccc(Cl)cc21)c1cccs1 (stereo not drawn)
  Mtb growth: 0%
COc1ccc2ncc(C(=O)NCc3ccccc3)c(Cl)c2c1
  Mtb growth: -2%
COC(=O)C(C)Sc1nnc(Cc2cc(=O)[nH]c(=O)[nH]2)n1-c1ccc(Cl)cc1 (stereo not drawn)
  Mtb growth: -6%

CCCCn1c2c(c(=O)[nH]c1=O)C(c1cccc(Br)c1)C1=C(COC1=O)N2 (stereo not drawn)
  Mtb growth: -10%
Nc1nc(SCc2cccc([N+](=O)[O-])c2)[nH]c(=O)c1NC(=O)c1ccccc1
  Mtb growth: 6%
CCOc1ccc(-c2nnc3c4cc(OC)c(OC)cc4n(Cc4cccc(F)c4)cc2-3)cc1
  Mtb growth: 23%
CCOC(=O)c1c(NC(=O)c2ccc(C(C)=O)cc2)sc2c1CC(C)(C)NC2(C)C
  Mtb growth: 3%
Cc1ccc(S(=O)(=O)Nc2cc3c(C(=O)Nc4ccccc4)c(C)oc3c3ccccc23)c(C)c1
  Mtb growth: 2%
COc1ccc(-n2ccnc(SCc3c(F)cccc3Cl)c2=O)cc1OC
  Mtb growth: -3%
COc1ccc2c(Cl)c(C(=O)Nc3ccc(S(=O)(=O)N4CCCCCC4)cc3)sc2c1
  Mtb growth: 5%
O=C1NC(c2cccc(O)c2)C(C(=O)c2cccnc2)C(O)(C(F)(F)F)N1 (stereo not drawn)
  Mtb growth: 1%
COc1ccc(NC(=O)CSc2nccn(-c3ccc(F)cc3)c2=O)cc1
  Mtb growth: -4%
Cc1ccc(C(CNC(=O)C(=O)Nc2cccc([N+](=O)[O-])c2)N2CCN(C)CC2)cc1 (stereo not drawn)
  Mtb growth: -6%
O=C(Nc1ccon1)C1CCN(S(=O)(=O)c2cccs2)CC1
  Mtb growth: -21%
Cc1cccc(C(=O)Nc2nc3ccc4sc(C)nc4c3s2)c1
  Mtb growth: 12%
O=C(NCc1ccc(F)cc1)c1cnc2sccn2c1=O
  Mtb growth: 2%

# Some of the compounds tested; the hit share may differ from the screen's.
